High-throughput results as filed in PubChem BioAssay.
2A StopGo – High Throughput Screening for Foot and Mouth Disease Virus Antivirals; AID 1159524, 2015; Potency, µM (top dose mostly 57.9 µM), without a hit: at the highest dose signal change, negative = less light; hit rate 1.2% among 410,000; human cells with a luciferase reporter of 2A StopGo recoding; control for the full effect not named in the record; active = well fitted falling curve with a large enough effect; inconclusive = small, poorly fitted or top-dose-only effect; inactive = no such curve, though single readings can be large or run the other way; tested in HEK293T cells; also: % is scaled to controls: 0 for no effect and ±100 for the full control effect; nearly all actives have a fitted effect of over 45% in size; luciferase light after 4 h
MARV entry inh – qHTS for inhibitors of binding or entry into cells for Marburg Virus; hit rate 1.8% among 300,000; AID 540276, 2011; Marburg virus pseudotyped entry inhibition, cell reporter; control for the full effect not named in the record; about a third of the inactives were read at about 46 µM; Potency, µM (top dose mostly 37.8 µM), for the others: top-dose activity change, negative = inhibition, actives largely listed as inhibitors; active = well fitted inhibition curve with a large enough effect; inconclusive = small, poorly fitted or top-dose-only effect, or effect the other way; inactive = flat fitted curve, though single readings scatter; tested in HEK293 cells; about a fifth of its hits are not listed in these tables; also: % is scaled to controls: 0 for no effect and ±100 for the full control effect; luciferase read-out
SARS PLP yeast – qHTS of Yeast-based Assay for SARS-CoV PLP; S. cerevisiae expressing SARS-CoV PLpro, growth rescue; control for the full effect not named in the record; Potency, µM (series often up to 32.9 µM), inactives show top-dose activity, positive = growth rescue; hit rate 0.19% among 330,000; AID 485353, 2010; active means well fitted rising curve with a large enough effect; inconclusive means small, poorly fitted or top-dose-only effect; inactive means no such curve, though single readings can be large or run the other way; also: 0% is about no effect; nearly all actives have a fitted effect of over 55% in size; growth read by luminescence after 48 h
NS1 function inh – qHTS Assay for Inhibitors of Influenza NS1 Protein Function. Potency, µM (series often up to 46.1 µM), inactives show top-dose activity, positive = more growth. S. cerevisiae slowed by influenza A NS1, growth recovery by OD600. hit rate 0.4% among 270,000; active means well fitted rising curve with a large enough effect; inconclusive means small, poorly fitted or top-dose-only effect; inactive means no such curve, though single readings can be large or run the other way; also: nearly all actives have a fitted effect of over 50% in size
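In this qHTS, NS1 from influenza A is expressed in budding yeast, where it slows growth. Cells are switched from glucose to 2% galactose medium (pH 6.0, -URA), treated with compound, and growth recovery is read at OD600.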
RE007 growth inh – qHTS Assay for Inhibitors of the HIV-1 protein Vpr. S. pombe RE007 Vpr strain, BacTiter-Glo ATP luminescence, 24 h; control for the full effect not named in the record. Potency, µM (titrated, usually from 92.2 µM), for the others: at the highest dose activity change, negative = less growth. hit rate 0.21% among 360,000. AID 651644, 2012; active = well fitted falling curve with a large enough effect; inconclusive = small, poorly fitted or top-dose-only effect; inactive = no such curve, though single readings can be large or run the other way;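 also: % is scaled to controls: 0 for no effect and ±100 for the full control effect; nearly all actives have a fitted effect of over 50% in size; the assay follows cell death caused by Vpr and the record does not say whether a fall means rescue or toxicity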
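Fission yeast strain RE007, carrying one chromosomally integrated HIV-1 vpr copy, was seeded at OD 0.01 in PMG+AL medium with 23 nL pinned compound. After 24 h at 30 °C and 99% humidity, viability was read by BacTiter-Glo luminescence.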
Cruzain Triton – qHTS Assay for Promiscuous and Specific Inhibitors of Cruzain (with detergent); Cruzipain (Trypanosoma cruzi), P25779; purified cruzain, Z-FR-AMC fluorescence, 0.01% Triton; Potency, µM, inactives show max response, negative = inhibition, hits mostly inhibitors; hit rate 0.43% among 200,000;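 also: plate controls were neutral wells for no effect and buffer without enzyme for full effect; nearly all actives have a fitted effect of over 40% in size; top concentration of the series not given in the record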
Target sequence (P25779 123-467 limits assumed): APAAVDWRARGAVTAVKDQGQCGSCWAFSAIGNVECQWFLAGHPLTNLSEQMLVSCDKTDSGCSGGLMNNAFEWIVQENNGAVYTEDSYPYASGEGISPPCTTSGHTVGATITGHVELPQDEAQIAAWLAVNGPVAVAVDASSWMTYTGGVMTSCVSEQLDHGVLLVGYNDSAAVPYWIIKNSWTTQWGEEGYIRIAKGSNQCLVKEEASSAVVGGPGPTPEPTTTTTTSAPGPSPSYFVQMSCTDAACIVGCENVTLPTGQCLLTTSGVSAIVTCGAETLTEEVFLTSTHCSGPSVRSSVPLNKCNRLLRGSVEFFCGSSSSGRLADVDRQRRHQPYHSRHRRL
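Purified cruzain (1.5 nM final) was preincubated with compounds for 15 min at room temperature in 100 mM sodium acetate pH 5.5, 5 mM DTT, 0.01% Triton X-100. Reaction started with 2 uM Z-FR-AMC; AMC fluorescence change over 60 s gave activity.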
Cruzain noTriton – qHTS Assay for Promiscuous and Specific Inhibitors of Cruzain (without detergent); purified cruzain, Z-FR-AMC fluorescence, no detergent; Potency, µM, for the others: max response, negative = inhibition, hits mostly inhibitors; hit rate 2.3% among 200,000;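 also: plate controls were enzyme without inhibitor for no effect and buffer without enzyme for full effect; nearly all actives have a fitted effect of over 40% in size; top concentration of the series not given in the record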
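Purified cruzain at 1.5 nM, pre-incubated 15 min with compound at room temperature in 100 mM sodium acetate pH 5.5, 5 mM DTT, 0.00005% Triton X-100. Reaction started with 2 uM Z-FR-AMC; AMC fluorescence increase over 60 s gives rate.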
LASV entry inh – qHTS for Inhibitors of binding or entry into cells for Lassa Virus. Lassa virus pseudotype entry inhibition, cell reporter; control for the full effect not named in the record. Potency, µM (top dose mostly 37.9 µM), for the others: top-dose activity change, negative = inhibition, actives largely listed as inhibitors. hit rate 1.2% among 300,000; active means well fitted inhibition curve with a large enough effect; inconclusive means small, poorly fitted or top-dose-only effect, or effect the other way; inactive means flat fitted curve, though single readings scatter; tested in HEK293 cells; also: % is scaled to controls: 0 for no effect and ±100 for the full control effect; nearly all actives have a fitted effect of over 50% in size; luciferase read-out
An asterisk follows results filed as active; ? = inconclusive; nt = not tested or not shown; & = joins results of further samples; [ ] = remark or other dose. Unless noted, calls follow the shape of the dose curve; as a rule, active = well fitted curve in the direction sought with a large enough effect; inconclusive = small, poorly fitted or top-dose-only effect, or another doubt; inactive = no such curve, though single readings can be large; an effect the other way counts as inactive or inconclusive. Potency is read from the fitted curve at half-maximal effect.

SMILES	2A StopGo	MARV entry inh	SARS PLP yeast	NS1 function inh	RE007 growth inh	Cruzain Triton	Cruzain noTriton	LASV entry inh
Cc1ccc(-c2cc(C(=O)NCc3ccco3)c3ccccc3n2)o1	-15%	?	-8%	-10%	-18%	-18%	-1%	4%
c1ccc2c(c1)Sc1ccccc1N2CC1CN2CCC1CC2 (stereo unspecified)	-17%	nt	0%	0%	-18%[18.4 µM]	nt	nt	nt
Cc1ccc(-c2c(C#N)c(N)n(-c3ccc(C)cc3)c(=O)c2C#N)cc1	-23%	-27%[46.1 µM]	4%	8%	1%	-11%	?	5%
N=C1/C(=C\c2ccc(-c3cccc(Cl)c3)o2)C(=O)N=C2SC=C(c3ccccc3)N12	-1%	13%	8%	17%	-23%	-12%	?	?
Cc1cccc(CSCCNC(=O)CN(c2cc(C)cc(C)c2)S(C)(=O)=O)c1	-11%	nt	4%	-8%	-8%	nt	nt	nt
COc1ccc(NC(=O)CC2(CC(=O)O)CCCC2)cc1	-10%	-4%[46.1 µM]	-1%	2%	-5%	nt	nt	9%[46.1 µM]
COc1cc(NS(=O)(=O)c2ccc(N)cc2)ncn1	6%	nt	-4%	nt	nt	4.9%&-0.2%	-11%&-9%	nt
CCOn1c(-n2nc(C)cc2C)nc2ccccc2c1=O	14%	-9%	-2%	7%	6%	4.7%	-5%	-5%
Cc1cc(NC(=O)C(=O)c2c(C)[nH]c3ccccc23)no1	16%	?	3%	nt	11%	nt	nt	-2%
O=C(O)C1CCCN1S(=O)(=O)c1ccc(F)cc1 (stereo unspecified)	-9%	nt	0%	7%	17%	nt	nt	nt
Cc1onc(-c2c(F)cccc2Cl)c1C(=O)N1CCN(S(C)(=O)=O)CC1	-8%	0%	2%	-5%	12%	0.4%	-2%	1%
CCCCCCNC(=O)c1ncn[nH]1	3%	5%[46.1 µM]	1%	0%	24%	nt	nt	-12%
C(=N/Nc1nc(-c2ccccc2)cc(-c2ccccc2)n1)/c1cccnc1	11%	?	-79%	?	0%	-12%	26%	-17%
CCOC(=O)C(C)Sc1ncnc2nc[nH]c12 (stereo unspecified)	4%	-9%	11%	2%	4%	-1.1%	-14%	-21%[14.3 µM]
Cc1cc(C)c(NC(=O)CCn2c(=O)c3cccn3c3ccccc32)c(C)c1	-12%	nt	nt	nt	nt	-7.0%	?	?
Cc1cc(C)nc(NC(=O)Cc2ccc([N+](=O)[O-])cc2)c1	-24%	-5%	4%	9%	-6%	-3.0%	-12%	?
Cc1nc(Oc2ccccc2)c2ccsc2n1	-3%	-37%	-1%	nt	-16%	nt	nt	5%
CC/C(O)=C1\C(=O)CC(C)(C)CC1=Nc1ccccc1C	-25%	-4%	-1%	-11%	13%	-4.5%	-7%	6%
CC(C)CC(NC(=O)c1ccc(Cl)cc1)C(=O)OCC(=O)c1ccc2c(c1)NC(=O)CO2 (stereo unspecified)	?	?	2%	14%	19%	-20%	20µM*	?
Cc1ccc(NC(=O)COc2ccc(-c3nnco3)cc2)cc1S(=O)(=O)N1CCOCC1	?	?	-4%	nt	-16%	nt	nt	?
CC(Sc1nc2scc(-c3ccccc3)c2c(=O)[nH]1)C(=O)NC(N)=O (stereo unspecified)	-12%	-11%[46.1 µM]	-1%	-45%	-14%	nt	nt	22%
CNC(=O)c1cc2n(n1)CCCN(Cc1ccc(F)cc1)C2=O	-25%	nt	nt	nt	nt	0.1%	-13%	3%[46.1 µM]
CC1(C)Cc2cccc(Oc3cc(NN4CCCCC4)c([N+](=O)[O-])cc3[N+](=O)[O-])c2O1	-29%	nt	-1%	4%	-2%	nt	nt	nt
Cc1ccc(-n2ncc(C(=O)NCCN3CCCC3)c2C2CCN(C(=O)OC(C)(C)C)CC2)cc1C	-7%	nt	nt	nt	nt	-2.0%	8%	?
COC(=O)c1ccc(NC(=S)NCc2ccco2)cc1	39%[activator]	-29%[46.1 µM]	-1%	0%	11%	nt	nt	-26%
Nc1ncc(Br)cc1N=Cc1ccccc1	46%[activator]	-1%	11%	-19%	18%	-5.4%	-12%	-20%
O=C(NC1CCCc2ccccc21)c1cc(F)cc(F)c1 (stereo unspecified)	-5%	9%[46.1 µM]	0%	-3%	10%	nt	nt	7%[46.1 µM]
COc1ccc(CNC(=O)Cn2nc(C)n3cccc3c2=O)cc1	-1%&-13%	?	1%	-14%	5%	-7.1%	25µM*	-6%[46.1 µM]
CC1=C(C(N)=O)C(c2cccs2)n2nc(-c3cccc(C)c3)nc2N1 (stereo unspecified)	0%	-11%	-1%	-8%	8%	2.6%	12%	0%
CC1(C)CC(=O)c2cnc3nc4ccccc4n3c2C1	-8%	18%	1%	2%	-8%	nt	nt	-19%
C=CCn1c(SCC(=O)NCc2ccc3c(c2)OCO3)nnc1-c1cccnc1	2%	7%[46.1 µM]	1%	nt	7%	nt	nt	-8%
O=C(COC(=O)/C=C/c1cn(-c2ccccc2)nc1-c1cccnc1)Nc1ccc(Cl)cc1Cl	-12%	-1%	13%	20%	4%	-9.8%	10µM*	-2%
CN1CCc2c(sc(/N=C/c3cccs3)c2C(N)=O)C1	43%[activator]	0%	-5%	-7%	-5%	-12%	-10%	2%
CCC1CCC(C(=O)NC(C(=O)NCCN2CCOCC2)C(C)C)CC1 (stereo unspecified)	8%	7%[46.1 µM]	16%	-8%	1%	nt	nt	-2%[46.1 µM]
COc1ccc(/C=C/C(=O)NC(=S)NNC(=O)c2c(-c3ccccc3)noc2C)cc1	-6%	?	?	-10%	22%	-0.4%	-18%	0%
CC1(C(=O)O)CC12c1ccccc1-c1ccccc12 (stereo unspecified)	-18%	11%	nt	nt	-9%	nt	nt	10%[46.1 µM]
O=C(CSc1nnc(CNc2ccccc2)o1)N1CCc2ccccc21	5%	-19%	2%	-2%	13%	3.4%	-15%	-4%
CCOc1ccc(N2CC(C(=O)OCC(=O)c3ccc(OC)cc3)CC2=O)cc1 (stereo unspecified)	-1%	7%[46.1 µM]	-6%	-8%	4%	nt	nt	14%
CNC(=O)COc1coc(CN2CCN(c3cccc(Cl)c3)CC2)cc1=O	-8%	nt	2%	-2%	7%	nt	nt	nt
COc1ccccc1C(=O)Nc1ccnn1C1CCN(C(=O)C(C)(C)C)CC1	2%	nt	5%	?	-20%	nt	nt	nt
COc1ccc(C)cc1NC(=O)c1cc(S(=O)(=O)NC2CCCCCC2)ccc1F	46%[activator]	nt	nt	nt	nt	-0.1%	-11%	-3%[46.1 µM]
CCOC(=O)/C=C1\CN(Cc2ccc(OC)cc2)S(=O)(=O)c2ccccc21	-10%	nt	-4%	-28%	6%	nt	nt	nt
N#CCCN(C(=O)CSc1n[nH]c(=O)[nH]c1=O)c1ccccc1	-14%	?	-5%	nt	-4%	nt	nt	8%
Cc1ccccc1S(=O)(=O)Nc1ncc(C(F)(F)F)cc1Cl	-24%	-3%[46.1 µM]	-6%	nt	-15%	nt	nt	-26%
CC(C)Nc1nc(NC(C)C)nc(OCCOC(=O)c2ccccc2)n1	13%	-7%	?	-38%	-7%	-9.3%	-16%	-18%
Cn1c(SC/C=C/c2ccccc2)nnc1-c1cccs1	25%	15%	-21%	-16%	-11%	-2.6%	-5%	5%
CCn1c(C)cc(/C=C2\NC(=O)N(Cc3ccccc3)C2=O)c1C	-8%	?	11%	?	-13%	3.5%	-30%	-25%
O=C(C(NS(=O)(=O)c1cccc2nsnc12)c1ccccc1)N1CCN(c2ccccn2)CC1 (stereo unspecified)	-11%	-14%&-14%	2%	-36%	10%	-2.2%	1%	-27%
O=C(O)CN1C(=O)/C(=C\c2cccc(OCc3ccc(F)cc3)c2)SC1=S	6%	-3%[46.1 µM]	-1%	4%	14%	nt	nt	16%[46.1 µM]
COC(=O)c1ccc(OCC(=O)c2ccccc2OC)cc1	19%	6%	7%	-2%	?	-0.6%	2%	4%
Carrying on.
SMILES	2A StopGo	MARV entry inh	SARS PLP yeast	NS1 function inh	RE007 growth inh	Cruzain Triton	Cruzain noTriton	LASV entry inh
COC(=O)c1ccc(N=NN2CCCCC2)cc1	14%	?	-1%	-13%	-21%	nt	nt	9%
CC1(C)CC2CC(C)(CN2S(=O)(=O)c2ccc(N)cc2)C1 (stereo unspecified)	-6%	2%	0%	-42%	-7%	-4.9%	-10%	-8%
CCN(CC)CC#CCC(OC)(c1ccccc1)c1ccccc1	-16%	5%[46.1 µM]	0%	1%	4%	nt	nt	?
COC(=O)C(NC(C)=O)(Nc1ccc(C)cn1)C(F)(F)F (stereo unspecified)	-19%	20%[46.1 µM]	0%	9%	9%	nt	nt	26%[46.1 µM]
COc1ccc(C(=O)c2cnc3cc4c(cc3c2C)OCO4)cc1	-2%	?	-4%	-54%	2%	-2.9%	0%	?
CCOC(=O)Cc1ccc(NC(=O)c2cccc([N+](=O)[O-])c2)cc1	29%	nt	-1%	-1%	6%	nt	nt	nt
CCc1cnc2c(c1SCc1c(F)cccc1Cl)c(=O)n(C)c(=O)n2C	?	nt	nt	nt	nt	0.0%	-6%	-13%[46.1 µM]
CCOc1ccc(CCNC(=O)c2ccc3c(c2)nc2n3CCOC2)cc1OCC	0%	nt	nt	nt	nt	2.2%	-14%	0%[46.1 µM]
CN(Cc1nccn1C)C(=O)CC1C(=O)NCCN1Cc1ccc(F)cc1Cl (stereo unspecified)	-9%	2%	?	-3%	-4%	nt	nt	4%
Nc1nc(CN2CCN(c3ccccc3F)CC2)nc(Nc2ccccc2)n1	?	?	-10%	-8%	-17%	-3.6%	11%	?
O=C(Cc1ccc(Cl)c(Cl)c1)NC1CCCCCC1	27%	17%[46.1 µM]	-5%	-2%	22%	nt	nt	?
